UCH37 DUB inh = inhibitors of human deubiquitinating enzyme UCH37; Q9Y5K5; purified proteasome/UCH37, Ub-AMC cleavage fluorescence; inhibition, % (no concentration beside the values); 330,000 compounds, 0.33% hits; AID 588478;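 active means mean of two replicates above 20%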;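 further: 0% = compound-free wells with enzyme and 100% = wells lacking proteasome; stock transfer was 100 nL into about 20 µL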
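Reagent: Ub-AMC substrate; assay system: Proteasome-associated human UCH37 deubiquitinase; controls: no-proteasome and no-compound wells; read-out: % inhibition of Ub-AMC cleavage fluorescence; timing: 30 min preincubation with enzyme, 25 min cleavage at room temperature; signal: AMC fluorescence from Ub-AMC cleavage, excitation 355 nm, emission 460 nm; buffer or medium: Tris-HCl pH 7.4 plus ovalbumin, ATP-MgCl2, DTT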
ALR inh = blocks human ALR sulfhydryl oxidase activity. P55789. purified ALR, DTT oxidation, H2O2 HRP-luminol luminescence. inhibition, % (concentration not given with the values). 290,000 compounds, 3.8% hits;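 active means mean and each replicate at 75% or more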;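 further: stock transfer was 7.5 nL into about 7.5 µL; 0% = neutral wells and 100% = wells with inactivated enzyme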
Target sequence (P55789 whole entry, looked up): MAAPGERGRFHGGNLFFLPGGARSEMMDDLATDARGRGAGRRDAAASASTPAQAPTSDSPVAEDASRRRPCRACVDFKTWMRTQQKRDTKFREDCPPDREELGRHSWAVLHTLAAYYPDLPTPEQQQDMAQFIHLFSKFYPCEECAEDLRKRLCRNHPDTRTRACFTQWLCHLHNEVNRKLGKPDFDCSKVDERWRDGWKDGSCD
FGF22 binding = shifts melting point of recombinant human FGF22; calls only at 9.99 µM; AID 651658; recombinant FGF22 thermal shift, SYPRO orange fluorescence; percent of sucrose octasulfate shift, DMSO zero; Q9HCT0; 340,000 compounds, 1.5% hits;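 active means melting point raised past a set limit in the mean and every replicate; three in four hits are not shown here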
Target sequence (Q9HCT0 whole entry, looked up): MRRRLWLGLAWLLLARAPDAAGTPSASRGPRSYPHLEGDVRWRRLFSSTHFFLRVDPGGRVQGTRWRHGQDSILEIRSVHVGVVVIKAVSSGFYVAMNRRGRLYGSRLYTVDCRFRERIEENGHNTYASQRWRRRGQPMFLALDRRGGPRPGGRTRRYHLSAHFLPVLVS
Ecoli rRNA inh = inhibits bacterial ribosomal RNA function over humanized ribosomes; E. coli WT GFP vs humanized-ribosome RFP mutants, fluorescence, 24 h; hits give low values; DMSO median 0, no signal -100; GFP signal change (wild-type ribosome), % (concentration not given with the values); 350,000 compounds, 1.6% hits;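 active means significant combined selectivity score with lowered wild-type GFP, culture density cut under 30%, mutant RFP and density less affected; inactive means any of these conditions unmet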; further: one replicate is shown; some compounds called inactive have numbers as strong as hits
HNF4A DNA FP = change in binding of human HNF4 alpha to DNA; AID 1224865; P41235; activity change, % at 10 µM; 360,000 compounds, 0.3% hits; HNF4a-FITC DNA binding, fluorescence polarization, 1 h; in the data active means activity change above about 30%, passing the limit was not always enough;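 further: controls were the assay level and a saturating level of protein; the project sought stronger binding though the title names inhibitors; some compounds called inactive have numbers as strong as hits; positive values seem to mean higher polarization but the record does not say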
Target sequence (P41235 whole entry, looked up): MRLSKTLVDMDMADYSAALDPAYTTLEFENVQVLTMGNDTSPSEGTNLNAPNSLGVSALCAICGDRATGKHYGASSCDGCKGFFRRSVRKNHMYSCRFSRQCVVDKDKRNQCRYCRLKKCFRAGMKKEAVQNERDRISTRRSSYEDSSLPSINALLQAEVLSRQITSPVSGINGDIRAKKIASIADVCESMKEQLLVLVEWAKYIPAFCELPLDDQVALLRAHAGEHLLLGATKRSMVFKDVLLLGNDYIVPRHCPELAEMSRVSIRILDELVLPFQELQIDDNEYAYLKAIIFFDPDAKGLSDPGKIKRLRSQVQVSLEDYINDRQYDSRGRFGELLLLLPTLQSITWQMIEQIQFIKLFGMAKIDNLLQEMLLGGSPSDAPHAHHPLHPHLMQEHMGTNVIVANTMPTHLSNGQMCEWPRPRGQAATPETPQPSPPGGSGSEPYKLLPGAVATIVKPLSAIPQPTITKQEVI
E coli growth = blocks Escherichia coli growth; AID 1053175; 330,000 compounds, 0.21% hits; OD600 absorbance (no concentration beside the values); OD600, 23 h; hits give low values;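 active means OD600 absorbance below the run mean of sample wells minus 3.6 SD, in any replicate, cut at about 0.56 in these data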;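 further: stock transfer was 300 nL into about 60 µL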
B2AR ag = activates human beta-2 adrenergic receptor causing internalization | P07550 | Am2.2-beta2AR cells, FAP receptor internalization, flow cytometry; reference of the scale not given here | response, % (concentration not given with the values) | 340,000 compounds, 0.43% hits;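 active means response above a set limit, near 3 SD of response in nonfluorescent compounds, cut at about 42% in these data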;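 further: stock transfer was 100 nL into about 11 µL; a reference agonist was the positive control; negative values mostly stem from fluorescent compounds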
Ecoli rRNA inh OD600 = recorded beside Ecoli rRNA inh, whose call it bears; OD600 change, %; measured here: OD600 growth;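 optical density of the mix in the first replicate; 0 = DMSO median and -100 = no signal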
Ecoli rRNA inh RFP = further read-out of Ecoli rRNA inh, marked with its call; RFP signal change, %; measured here: RFP humanized mutant strains;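 first replicate; 0 = DMSO median and -100 = no signal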
* = called active by the depositor; i = inactive; . = no result given; & = joins results of further samples.

SMILES	UCH37 DUB inh	ALR inh	FGF22 binding	Ecoli rRNA inh	Ecoli rRNA inh OD600	Ecoli rRNA inh RFP	HNF4A DNA FP	E coli growth	B2AR ag
O=C(Oc1ccccc1F)c1ccc2c(=O)n3c(nc2c1)CCC3	-1.8	15	i	2	4	-0.7	1.3	0.65	-1
COc1ccc(C(CC(=O)N2CCCC2)c2c(OC)cc(OC)c3c(-c4ccccc4)cc(=O)oc23)cc1 (stereo not drawn)	-3.0	-12	i	-9	-11	9.0	-11	.	-19
O=C(COc1ccc2c(-c3ccccc3)cc(=O)oc2c1)NCCN1CCOCC1	3.5	-1	i	-4	-6	1.5	-5.4	0.64	7
CCN(CC)S(=O)(=O)c1cccc(NC(=O)COc2ccc(Cl)cc2Br)c1	5.1	-2	i	-16	-15	-14	-1.3	0.66	0
Cn1nc(-c2ccccc2)c(N2CCCCC2)cc1=O	1.1	.	i	-42*	-25*	-8.2*	4.6	0.66	-21
O=C1CCCC2=C1C(c1cccc(O)c1)c1c(ccc3ncccc13)N2 (stereo not drawn)	-9.4	-10	i	-7	-11	1.9	0.6	0.72	2
N#CCn1cnc2c(oc3ccccc32)c1=O	1.6	-3	.	.	.	.	-3.1	0.67	-6
C=CCN(CCNP(=O)(OCC)OCC)CP(=O)(OCC)OCC	4.3	.	.	.	.	.	0.7	0.78	-13
CC(NC(=O)c1cccs1)C(c1cccs1)N1CCN(Cc2ccccc2)CC1 (stereo not drawn)	2.4	-1	.	.	.	.	-1.9	0.67	-4
Cc1ccc(CN2C3=NC(=O)CN3c3ccccc32)cc1	0.4	.	.	.	.	.	-1.3	0.73	-13
CCCCn1nnc(NC(=O)COc2cc(C)ccc2C(C)C)n1	2.7	1	.	.	.	.	-1.4	0.69	-1
COC(=O)c1ccc(SC2CCCCC2)c([N+](=O)[O-])c1	0.2	-10	.	.	.	.	-3.2	0.66	9
CCN(CC)CCN(C(=O)c1ccc2c(c1)CCCC2)c1nc2ccc(C)cc2s1	1.3	-5	i	-28	-65	-1.5	-0.5	0.63	13
Clc1ccc(Cn2ccc3ccccc32)cn1	0.0	-18	i	-12	-1	-9.3	-1.8	0.69	-7
CNc1ncc(-c2nnnn2-c2ccccc2)c(-c2ccccc2)n1	-5.3	.	i	-2	9	4.3	0.5	0.7	-1
CC1CCC(NC(=O)C2CC(O)CN2S(=O)(=O)c2ccc([N+](=O)[O-])cc2)CC1 (stereo not drawn)	3.0	-42	i	-13	0	-1.4	1.2	0.67	2
CCCN(CCC)Cc1cc(=O)oc2cc(C)cc(C)c12	.	.	i	-2	-15	-15	-3.3	.	.
Cn1c(N2CCCC2)nc2c1c(=O)n(Cc1ccc(Cl)cc1)c(=O)n2C	7.4	8	.	.	.	.	0.6	0.71	-4
CCOC(=O)N1CCC(NC(=O)c2ccc3nc(N4CCOCC4)sc3c2)CC1	3.0	.	.	.	.	.	1.4	0.74	6
COc1cc(OC)cc(C(=O)Nc2ccc3nc4n(c(=O)c3c2)CCCCC4)c1	-2.6	1	i	-18	-20	-1.7	0.3	0.7	7
O=C(CCN1CCN(c2ccccc2)CC1)NNC(=O)Cc1c(F)cccc1Cl	1.3	.	i	4	4	0.1	-1.4	0.63	4
CC(=O)c1ccc(OCCOc2ccc([N+](=O)[O-])cc2)cc1	3.5	3	i	-16	-11	-15	-2.4	0.68	0
COc1ccc(S(=O)(=O)NCc2cccnc2)c(Cl)c1Cl	.	.	i	2	4	3.0	0.8	.	.
O=C(NCc1ccccc1)N1CCN(c2ccc(F)cc2)CC1	5.0	0	.	.	.	.	1.2	0.66	18
COc1ccc(CC(NC(C)=O)C(=O)NC2CCN(C(=O)Nc3ccccc3C)CC2)cc1OC (stereo not drawn)	.	.	i	7	15	0.4	-2.3	.	-3

Rewritten with two lines to a compound: entries from further up
Below each SMILES – UCH37 DUB inh, ALR inh, FGF22 binding, Ecoli rRNA inh, Ecoli rRNA inh OD600, Ecoli rRNA inh RFP, HNF4A DNA FP, E coli growth, B2AR ag
O=C(CCN1CCN(c2ccccc2)CC1)NNC(=O)Cc1c(F)cccc1Cl
  1.3, ., i, 4, 4, 0.1, -1.4, 0.63, 4
N#CCn1cnc2c(oc3ccccc32)c1=O
  1.6, -3, ., ., ., ., -3.1, 0.67, -6
Cn1nc(-c2ccccc2)c(N2CCCCC2)cc1=O
  1.1, ., i, -42*, -25*, -8.2*, 4.6, 0.66, -21

Next results follow.
SMILES	UCH37 DUB inh	ALR inh	FGF22 binding	Ecoli rRNA inh	Ecoli rRNA inh OD600	Ecoli rRNA inh RFP	HNF4A DNA FP	E coli growth	B2AR ag
O=C(NN1C(=O)C2C(c3ccccc3)C=CC(c3ccccc3)C2C1=O)c1ccccc1 (stereo not drawn)	4.0	-14	i	-28	-24	-6.5	1.6	0.65	6
Cc1cc(C)c2cc(CN(CCO)C(=O)Nc3ccc(Cl)cc3)c(=O)[nH]c2c1	1.1	-2	.	.	.	.	.	0.7	.
Cc1sc2nc(CSc3ccccc3)nc(NCCN(C)C)c2c1C	7.8	-4	.	.	.	.	-0.9	0.65	-1
O=C1c2ccccc2C2=Nc3ccccc3SC(c3ccc(Cl)cc3)C12 (stereo not drawn)	6.1	-2	i	18	-1	1.7	0.5	0.66	8
O=C(c1ccco1)N1CCN(S(=O)(=O)c2ccc(S(=O)(=O)NC3CCCCC3)cc2)CC1	5.1	-10	.	.	.	.	-2.6	0.71	-10
Cc1ccc(CN2CCSc3ccc(C(=O)NC4CCCC4)cc32)cc1	-89	10	.	.	.	.	-3.1	0.72	3
CCCOc1cccc(OCC(=O)Nc2nc3ccccc3[nH]2)c1	2.8	-5	i	0	9	-1.5	1.2	0.72	-9
Cc1ccc(C(=O)N[C@H](C(=O)NC2CCCCCCC2)C(C)C)cc1	0.0	.	i	5	18	-3.2	0.0	0.7	-6
Cc1ccc(/C=C/C(=O)OC(C)C(=O)NC2CCCCC2C)o1 (stereo not drawn)	6.6	-1	i	0	4	-2.4	-1.9	0.69	-1
NC(=O)c1ccc(C(F)(F)F)n(Cc2c(Cl)cccc2Cl)c1=O	-2.3	-4	.	.	.	.	4.1	0.72	-17
NS(=O)(=O)c1cnccc1Nc1ccc(Cl)c(Cl)c1	3.0	.	.	.	.	.	1.6	0.69	-8
COc1ccc(C2=NS(=O)(=O)N(C)C(C(=O)Nc3ccc4c(c3)OCO4)=C2)cc1	8.9	-4	i	-14	-9	-2.2	6.6	0.74	1
C=CCNC(=O)c1cc2cc(Cl)ccc2nc1N	.	.	i	3	2	-1.8	4.0	.	.
Fc1cccc(/C=N/Nc2ncnc3nc[nH]c23)c1	.	-2	i	-6	-8	2.3	-0.9	.	2
CCCNC(=O)c1cnc(Sc2ncc(C(F)(F)F)cc2Cl)n1C	-7.3	-3	.	.	.	.	-0.5	0.74	-11
COc1ccc(-c2nnc3sc(-c4ccccc4OC)nn23)cc1	-1.9	-4	.	.	.	.	0.1	0.72	-16
O=C(NC1CC1)c1cc(-c2ccc(Br)cc2)nc2ccccc12	-2.8	1	i	0	10	1.2	0.8	0.7	12
CCc1ccccc1OCC(=O)Nc1cccc(S(=O)(=O)N2CCCC2)c1	0.2	.	i	-13	-24	5.2	-2.5	0.59	-9
COc1ccc(NC(=O)N(C)C[C@@H]2OCc3cnnn3CCCC(=O)N([C@@H](C)CO)C[C@H]2C)cc1	.	.	i	0&-1	5&2	-1.0&0.3	1.5	.	.
CCc1ccc(C2CC(c3ccccc3)Nc3nc(N)nn32)cc1 (stereo not drawn)	-2.0	-3	i	-1	-8	-0.6	4.1	0.72	-4
Cc1nc(C(F)(F)F)ccc1C(=O)NN1CCOCC1	2.6	0	.	.	.	.	-1.1	0.68	1
O=C(CSc1nc2cc(Cl)c(Cl)cc2[nH]1)c1ccc2c(c1)OCO2	7.1	4	.	-9	0	4.7	0.8	0.69	0
CC1(C(=O)Nc2cnc3ccccc3c2)CCN1Cc1ccccc1Cl (stereo not drawn)	.	.	i	-34	-66	-9.6	4.0	.	.
O=C(NCCCCNC(=O)c1ccc(F)cc1)c1ccc(F)cc1	0.9	-1	i	8	6	1.2	-4.2	0.69	5
O=C(O)COc1ccc(Oc2ccccc2)cc1	0.8	-4	.	.	.	.	2.9	0.69	-6
SMILES	UCH37 DUB inh	ALR inh	FGF22 binding	Ecoli rRNA inh	Ecoli rRNA inh OD600	Ecoli rRNA inh RFP	HNF4A DNA FP	E coli growth	B2AR ag
CCCCn1c(N)c(N(CC(C)C)C(=O)CSc2ccc3c(c2)OCCO3)c(=O)[nH]c1=O	5.6	.	i	1	0	-2.0	-0.3	0.71	18
Cc1ccc(S(=O)(=O)NCCC(=O)N2CCCCCC2)cc1	2.8	-3	i	6	12	-0.9	1.2	0.67	13
CSc1ccccc1NC(=O)CN(C)CC(=O)NCC(=O)Nc1ccc(F)cc1	-0.6	0	i	3	3	0.2	1.8	0.67	-5
Cc1ccc(C)c(NC(=S)NC(C)C(c2cccs2)N2CCOCC2)c1 (stereo not drawn)	-0.6	8	i	-3	-15	1.1	-1.0	0.8	1
COc1ccc(OC(C)=O)c(C2c3cc(OC)c(OC)cc3CCN2C(C)=O)c1 (stereo not drawn)	1.6	-46	.	.	.	.	2.6	0.66	4
CCC(=O)c1ccc(OCC(=O)NCC2COc3ccccc3O2)cc1 (stereo not drawn)	0.3	-1	i	-2	-11	0.5	-0.2	0.66	-2
CCOC(=O)C1CCN(C(=O)CCc2c(C)nc3cc(-c4ccc(OC)cc4OC)nn3c2C)CC1	-60	.	i	3	-4	0.0	-1.1	0.69	-11
NC(=O)CN1C(=O)C(=O)N(Cc2ccc(Cl)cc2)C1=O	0.8	-2	i	5	11	0.7	1.9	0.61	6
CCSc1nsc(SCC)c1C(N)=O	4.2	-9	.	.	.	.	3.1	0.68	1
COC(=O)c1ccccc1NC(=S)N1CCN(c2ccc(OC)cc2)CC1	4.1	26	i	-16	-17	-6.1	1.3	0.63	-7
COC(=O)c1ccccc1NC(=O)c1c(Br)cnn1C	-1.0	-6	.	.	.	.	-1.1	0.73	3
Cc1cc(/C=C(\C#N)C(=O)OCC(=O)NC(=O)NC(C)(C)C)c(C)n1CCC(C)C	-11	.	.	.	.	.	2.9	0.75	1
COc1ccc(/C=C2\C(=O)OCc3cc(OC)c(OC)cc32)cc1OC	.	13	.	.	.	.	-2.1	.	-2
O=C(Nc1ccc(F)cc1)C(c1cc2ccccc2o1)N1CCN(c2ccncc2)CC1 (stereo not drawn)	.	.	i	1	-7	7.0	-0.3	.	.
Cc1sc2nc(COC(=O)c3cccc(S(=O)(=O)N(C)c4ccccc4)c3)[nH]c(=O)c2c1C	0.3	-4	i	9	-8	21	20	0.69	-22
Cc1nnc(NC(=O)c2cc3ccccc3o2)s1	5.1	4	i	-2	4	0.6	0.0	0.65	4
O=C(CNS(=O)(=O)c1ccc(Br)s1)N1CCN(c2ncccn2)CC1	0.3	.	.	.	.	.	0.2	0.73	-4
CN(CC(=O)Nc1ccc(Cl)c(C(F)(F)F)c1)C(=O)c1cccc(N2C(=O)CCC2=O)c1	-0.4	-4	i	-2	-32	-4.8	-4.5	0.64	4
O=C(Cn1nnc(-c2ccc(Cl)cc2)n1)NC(=O)NC1CCCC1	.	.	i	-3	-7	-0.2	-5.2	.	.
COc1ccc(CN2CCN(Cc3ccco3)CC2)c(OC)c1	3.4	-16	i	11	16	-1.6	2.4	0.66	-1
COC(=O)COc1cccc2c(=O)n(CC(=O)N3CCCc4ccccc43)ccc12	3.0	89*	i	-10	-6	0.1	-1.8	0.64	5
O=C(CCCc1nc(-c2ccccc2)no1)N1CCOCC1	3.0	.	.	.	.	.	-0.8	0.68	5
CCCCCCCCOC1OC(CO)C(O)C(O)C1NC(C)=O (stereo not drawn)	4.7	-17	.	.	.	.	-0.9	0.72	-5

A portion of the library; the hit share may differ from the screen's.
